fixLJ activator: B. multivorans fixK reporter activation. B. multivorans fixK-promoter GFP reporter, 18 h; hits give high values. z-score (concentration not given with the values). 0.3% of 29,000 active. AID 1918990;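 active = replicate mean overnight rise in green fluorescent reporter signal, 3 or more SD over negative controls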;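 also: score is relative to vehicle wells of the plate; 300 nL library stock went into each well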
Starred values were filed as active, the others as inactive.

SMILES	fixLJ activator
Cc1ccc2ccc(C(Nc3ccccn3)c3ccccc3)c(O)c2n1 (stereo not drawn)	-2.7
COc1ccc(NC(=O)Cn2c(C)cc3ccccc3c2=O)c(OC)c1	-1.2
O=C(Nc1ccc(NC(=O)c2cccs2)cc1)c1ccc(Br)cc1	0.04
COc1ccc(S(=O)(=O)N(CC(=O)NCCSCc2ccccc2)c2ccc(C)cc2)cc1	0.27
CC1CCN(c2nc3ccc(C(=O)NCc4ccccc4Cl)cc3s2)CC1	-0.54
COc1ccc(NC(=O)CN(C)S(=O)(=O)c2ccc3c(c2)CCC(=O)N3)c(OC)c1	-1.8
COc1ccc(-n2c(SCc3nc(-c4ccc(C)cc4)no3)nnc2-c2ccccc2)cc1	-0.26
COCCCNC(=O)Cn1c(=O)n(-c2ccc(C)c(C)c2)c(=O)c2c3c(sc21)CCCCC3	-1.4

The list goes on, overlapping the part above by 4 compounds.
SMILES	fixLJ activator
CC1CCN(c2nc3ccc(C(=O)NCc4ccccc4Cl)cc3s2)CC1	-0.54
COc1ccc(NC(=O)CN(C)S(=O)(=O)c2ccc3c(c2)CCC(=O)N3)c(OC)c1	-1.8
COc1ccc(-n2c(SCc3nc(-c4ccc(C)cc4)no3)nnc2-c2ccccc2)cc1	-0.26
COCCCNC(=O)Cn1c(=O)n(-c2ccc(C)c(C)c2)c(=O)c2c3c(sc21)CCCCC3	-1.4
O=C(NC1CCCN(Cc2cccnc2)C1)c1cccc(-c2ncccn2)c1 (stereo not drawn)	-0.18
CCOC(=O)c1[nH]c2c(c1Cc1ccccc1)C(=O)CC(c1ccc(Cl)cc1)C2 (stereo not drawn)	-0.19
CCNc1ncc(CN2CCC3(CC2)OCCc2c3[nH]c3ccccc23)cn1	-1.1
COc1ccc(N(CC(=O)Nc2cccc(C(C)=O)c2)S(=O)(=O)c2ccccc2)c(OC)c1	-1.8
COc1ccccc1N(CC(=O)NCCSc1ccccc1)S(=O)(=O)c1ccc(C)cc1	0.72
CCCn1c(CCC(=O)Nc2cc(OC)cc(OC)c2)nc2cccnc21	-0.85
Cc1ccc2c(CC(=O)Nc3ccc(S(=O)(=O)N4CCCCC4C)cc3)coc2c1 (stereo not drawn)	-1.1
CC1=C(c2ccc(C)c(C)c2)S(=O)(=O)N(Cc2ccc(C(=O)NCc3ccc(C)cc3)cc2)C1=O	-0.8
Cc1nonc1N1CCN(C(=O)c2ccc(N3CCCCC3)cc2)CC1	-1.5
COc1ccc(CCNC(=O)c2cnc3ccc(C)cn3c2=O)cc1	-0.34
CCOC(=O)c1c(NC(=O)COc2ccc(Cl)cc2C)sc2c1CCCCC2	-0.23
O=C(C1CCC(CNS(=O)(=O)c2ccc(Br)s2)CC1)N1CCN(c2ccccc2)CC1 (stereo not drawn)	-1.3
Cc1cc(C)c(NC(=O)CN(C)S(=O)(=O)c2ccc3c(c2)c(=O)n(C)c(=O)n3C)c(C)c1	-2.1
COc1ccc(NCc2nc3ccccc3n2CCOc2ccc(C)cc2)cc1	2
CCCN1C(C(=O)c2ccccc2)=C(OC(=O)c2ccc(C)cc2)c2ccccc2S1(=O)=O	-1.2
CCCOC1(C(F)(F)F)NC(=O)N(c2cccc(Cl)c2)C1=O (stereo not drawn)	-1.2
CC(C)CCOc1ccc(C2N=C(N)Nc3nc4ccccc4n32)cc1 (stereo not drawn)	-1.5
CN1CCSc2ccc(C(=O)NCc3ccccc3)cc21	0.31
Cc1c2cnn(CC(=O)Nc3cccc(C(F)(F)F)c3)c(=O)c2c(C)n1Cc1ccccc1Cl	-2.9
COc1cc(-c2nc(SCC(=O)Nc3ccc4c(c3)OCO4)c(-c3ccccc3)[nH]2)cc(OC)c1OC	-0.06
CCN1CCN(c2oc(/C=C/c3ccccc3OC)nc2C#N)CC1	-2.1
COCCn1cncc1CNC(=O)CCC(=O)NC1CCCC1	-0.54
COc1cccc(CN(C(=O)c2oc3ccc(Br)cc3c2C)C2CCS(=O)(=O)C2)c1 (stereo not drawn)	-0.45
CCOc1ccc(CCNC(=O)Cn2nnc(-c3ccccc3)n2)cc1OCC	-0.8
Cc1ccc(Cl)cc1NC(=O)CSc1nc(C)c(C)c(C)c1C#N	-0.26
CCc1ccccc1C(=O)N1CCCN(Cc2nnc(C)o2)CC1	-0.02
COc1c(F)cc(C(=O)NC2COCC2Cc2ccncc2)cc1F (stereo not drawn)	-0.56
Cc1ccc(OCc2cc(=O)n3c4c(sc3n2)CCCC4)cc1C	-1.6
CCOC(=O)c1cnc2cc(Cl)c(OC)cc2c1Nc1ccc(Br)cc1C	-1.5
Nc1nc(CCCNCc2cc(CN3CCCC3)cs2)cs1	-2.9
COc1ccc(NC(=O)CN(C)S(=O)(=O)c2cccc3nsnc23)cc1	-1
O=C(NCc1ccccc1)c1cc(-c2cccc(Cl)c2)on1	-0.46
CC1CCc2c(sc3nnn(Cc4cccc(C(=O)OC(C)C)c4)c(=O)c23)C1 (stereo not drawn)	-0.5
O=C(C1CCCO1)N1CCC2(CC1)OCCc1c2[nH]c2ccccc12 (stereo not drawn)	0.37
CCN(Cc1nc(-c2cccc(C)c2)no1)C(=O)NCCc1nncn1C	0.67
Cc1ccc(-c2cc(C(=O)NCc3cnn(C)c3C)c3cc(Br)ccc3n2)cc1	-3.7
Cc1[nH]cnc1CNc1nc2c(c(=O)[nH]1)Cc1ccccc1OC2	-1.9
COc1ccc(-c2ccnc3[nH]n(-c4ccccc4)c(=O)c23)cc1	0.79
CN(C)CCCNc1oc(/C=C/c2ccc(F)cc2)nc1C#N	-3
CCOc1ccc(C(=O)c2oc3ccccc3c2NC(=O)c2cc(=O)c3ccc(C)cc3o2)cc1	-0.85
CN(C(=O)CCCOCc1ccccc1)C1CCS(=O)(=O)CC1	-0.53
CCc1ccc(NS(=O)(=O)c2[nH]ncc2C(=O)OC)cc1	-0.66
COc1ccc(/C=C(\C#N)c2nc(-c3cc(Cl)ccc3OC)cs2)cc1	0.35
Cc1ccc(Cl)cc1NC(=O)C1CCC(CNS(=O)(=O)c2cccc3nsnc23)CC1 (stereo not drawn)	-1.3
Cc1nc(SCC(=O)N2CCN(c3ccccc3)CC2)[nH]c(=O)c1C	-0.15
COC(=O)c1ccc(Cn2c(SCc3ccccc3F)nc3ccncc32)cc1	-1
COc1ccc(C(=O)Nc2ccc(Cl)cc2C(=O)c2ccccc2)c(OC)c1	0.31
CCC(=O)N1CCc2cc(Br)cc(S(=O)(=O)NCCc3ccccc3)c21	0.23

Six records drawn at random from those above, as already listed:
SMILES	fixLJ activator
CCc1ccc(NS(=O)(=O)c2[nH]ncc2C(=O)OC)cc1	-0.66
Cc1ccc(Cl)cc1NC(=O)C1CCC(CNS(=O)(=O)c2cccc3nsnc23)CC1 (stereo not drawn)	-1.3
COc1ccc(/C=C(\C#N)c2nc(-c3cc(Cl)ccc3OC)cs2)cc1	0.35
COc1ccc(C(=O)Nc2ccc(Cl)cc2C(=O)c2ccccc2)c(OC)c1	0.31
CN(C(=O)CCCOCc1ccccc1)C1CCS(=O)(=O)CC1	-0.53
COC(=O)c1ccc(Cn2c(SCc3ccccc3F)nc3ccncc32)cc1	-1

(continued)
structure,fixLJ activator
CC(C)c1ccc(Nc2c(-c3ccc(N4CCOCC4)cc3)nc3ncccn23)cc1,1
Cc1cc(CC2CN(C(=O)c3ccc(O)c(F)c3)CC2O)n[nH]1 (stereo not drawn),-0.1
CCOc1ccc(N(c2nc(-c3ccc(OC)c(OC)c3)no2)c2nc(-c3ccc(OC)c(OC)c3)no2)cc1,-0.56
COc1cccc(NC(=O)CCc2nc(-c3cc(OC)c(OC)c(OC)c3)no2)c1,-0.89
O=S(=O)(NCC(c1ccccc1)N1CCc2ccccc21)c1ccccc1 (stereo not drawn),-0.54
COCCn1cnnc1CNC(=O)c1cccc(-c2cccc(Cl)c2C)c1,1.4
O=C(O)Cn1ccc(C2CCCN(Cc3cc4ccccc4[nH]3)C2)n1 (stereo not drawn),1.7
CN(Cc1cnn(-c2ccc(F)cc2)c1)C(=O)C(C)(C)N1CCOCC1,-2
CCOC(=O)N1CCc2c(sc3c2c(=O)n(-c2ccccc2)c(=O)n3CC(=O)Nc2ccc(OC)cc2OC)C1,0.5
COc1ccccc1C(=O)c1c(N)c(-c2nc(-c3ccccc3)cs2)c2ccccn12,-0.84
CC1CCc2c(sc3nnn(CC(=O)Nc4cccc(C(F)(F)F)c4)c(=O)c23)C1 (stereo not drawn),-2.9
Cc1nnc(NCc2ccccc2)c2c1nnn2Cc1ccc(F)cc1,-0.13
CCCNC(=O)N1CCC(c2nnc(Cn3cncn3)n2CC)CC1,-3.2
Cc1ccc2nc(Cl)c3cc(C(=O)NC4CCC(C)CC4)sc3c2c1 (stereo not drawn),-0.2
CCc1ccccc1NC(=O)Cn1c(=O)n(Cc2ccc3c(c2)OCO3)c(=O)c2ccc(C(=O)NC3CCCCC3)cc21,-0.14
Cc1ccccc1CNC(=O)Cc1csc2ccccc12,-0.39
Cc1ccc2oc(C(=O)N(Cc3ccccc3F)C3CCS(=O)(=O)C3)c(C)c2c1 (stereo not drawn),-0.92
COc1ccc(-c2nnc(SCC(=O)Nc3c(C)cccc3C)nc2-c2ccc(OC)cc2)cc1,-0.03
CCc1nccn1CCCNC(=O)CSc1nc(C)cs1,1.4
CN(C)S(=O)(=O)N(CC(=O)NCCSc1ccc(Cl)cc1)c1ccccc1,-2.2
CCc1cccc(C)c1NC(=O)C1=C(C)C(=O)OC12CCC(C)CC2 (stereo not drawn),-0.3
COc1ccc(S(=O)(=O)N(CC(=O)Nc2ccc3c(c2)OCO3)c2ccc(C)cc2)cc1,-0.07
COc1cccc(OC)c1C(=O)Nc1nnc(C)s1,-0.37
CCN(Cc1ccccc1)Cc1c(O)ccc2oc(C)c(C(=O)Nc3ccccc3C)c12,-2
Cc1ccc(-c2nc3cccc(C)n3c2Nc2ccc3c(c2)OCCO3)cc1,0.46
CCCCN(Cc1ccccc1)C(=O)c1oc(=O)c2ccccc2c1-c1ccc(C)cc1,0.2
COc1ccc(NC(=O)CC2C(=O)N(c3ccccc3)C(=O)N2C2CCCCC2)cc1 (stereo not drawn),-0.84
Cc1ccc(O)c(C(=O)N2CCOc3c(O)cc(-c4cccnc4)cc3C2)c1,-0.97
Cc1ccc(Cn2c(C)c(CNC(C)c3ccccc3)c(C(=O)O)c2C)cc1 (stereo not drawn),-1.5
COc1ccc(-c2cc(C(=O)Nc3cnn(Cc4ccc(F)cc4)c3)no2)cc1OC,-0.39
CCCN1CCC[C@@H]2Cc3[nH]ncc3C[C@H]21,-1.1
COc1cccc2c1OCCCN(C(=O)Nc1cnns1)C2,0.64
COc1ccc2c(c1)c1c(c(=O)n(-c3cccc(C)c3)c(=O)n1CC(=O)Nc1c(C)cc(C)cc1C)n2C,3.1
COCCN(Cc1cnn(C)c1)C(=O)C1CC(=O)Nc2ccc(OC)cc21 (stereo not drawn),-0.07
Cc1cc(CC2CN(C(=O)c3cc(Cl)ccc3C)CC2O)on1 (stereo not drawn),0.1
N#Cc1c(-c2ccc(O)cc2)cc(-c2cc(CN3CCOCC3)cs2)nc1N,-0.77
CCCn1c(=N)n(CC(O)COc2ccccc2OC)c2ccccc21 (stereo not drawn),0.33
O=C(Cn1cccn1)N1CCCN(c2nc(-c3ccccc3)no2)CC1,-0.23
CCc1ccc2oc(-c3cccc(NC(=O)C(C)(C)Oc4ccc(Br)cc4)c3)nc2c1,-1.1
COCCNC(=O)CCn1c(=O)c2cc(OC)c(OC)cc2n(CC(=O)Nc2ccccc2OC)c1=O,4.6*
CCCN1CCN(C(=O)c2cnn(CC)c2)C2CS(=O)(=O)CC21 (stereo not drawn),-1.5
Cc1cc(C)c(NC(=O)CSc2nc3ccccc3nc2N2CCCCC2)c(C)c1,-2
Cc1cccc(-c2cn[nH]c2C2CCN(C(=O)CCCn3cncn3)CC2)c1,-0.16
N#Cc1nc(/C=C/c2ccc(F)cc2)oc1NC1CCCCC1,-3
COc1ccc(Br)c2c1-c1nc(NC(=O)c3ccccc3F)sc1C2,0.55
CC(C)CC(NC(=O)N1CCC(c2nnc3n2CCCCC3)CC1)C(=O)O (stereo not drawn),-1.9
COc1ccc(C)cc1N(CC(=O)N1CCC(C)CC1)S(=O)(=O)c1ccc(C)cc1,1.2
COc1cccc2c1cc1c(=O)n(CC(=O)N3CCN(c4cccc(C(F)(F)F)c4)CC3)nc(C)n12,-0.3
COc1ccc(Cl)cc1NC(=O)CSc1nc(-c2cccs2)cc(C(F)(F)F)n1,-1.5
CCOCCn1c(=O)n(Cc2cc(OC)ccn2)c2cc(C(=O)O)cnc21,-0.46
COc1ccc(C2CC(=O)c3cc(-c4nc(-c5cccc([N+](=O)[O-])c5)cs4)c(=O)n(-c4ccc(OC)cc4)c3C2)cc1 (stereo not drawn),0.58
O=C(c1ccc2c(Cl)c3c(nc2c1)CCCC3)N1CCN(c2ccccc2F)CC1,0.73
CCCc1cc(C(=O)N2CCC3(CC2)OCCc2ccsc23)n[nH]1,-1.8
COc1cc(C)c(-c2nc(CN3CCNCC3)c(C)o2)cc1C,-3.9
COCCCn1c(=N)c(C(=O)NC2CCCCC2)cc2c(=O)n3ccccc3nc21,-0.04
Cc1ccc(NC(=O)c2ncn(-c3ccccc3)n2)c(Cl)c1,-1.3
COc1ccc(S(=O)(=O)NC2CCCC(NC(=O)c3cccn3C)C2)cc1 (stereo not drawn),-1.1
CCC1(c2ccccc2)NC(=O)N(C)C1=O (stereo not drawn),-0.59
CCCCNC(=O)c1ccccc1NC(=O)CN(c1ccccc1)S(=O)(=O)N(C)C,-1.6
CCN(CC)c1ccc(NC(=O)CSc2nnc(C)c(=O)[nH]2)cc1,0.71
Cc1cc(Nc2cccc(C(F)(F)F)c2)nc2ccc(NC(=O)c3ccc(N(C)C)cc3)cc12,0.71

Screening results from PubChem.

Some of the compounds tested; rates above refer to the full screens.
